Screening data: PubChem BioAssay, National Center for Advancing Translational Sciences (NCATS)
SmPrx2 inh – Schistosoma mansoni Prx2 inhibition | S. mansoni Prx2 activity coupled to TGR/GSH (TGR is thioredoxin glutathione reductase), NADPH fluorescence loss, qHTS; some inactives read as strong as hits | Potency, µM | hit rate 0.07% among 65,000; active means full or partial inhibition curve with a strong effect at the top dose; inconclusive means weaker partial or single-point curve; inactive means no accepted curve; further: series up to 57 µM; many of its hits are not listed in these tables
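qHTS, coupled TGR/Prx2 format; 15 min compound preincubation at RT; reaction started with H2O2 (2.5 mM aliquot); kinetic NADPH fluorescence decrease, ex 365/em 450 nm.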
Anthrax LT inh – inhibitors of anthrax lethal toxin internalization; Cells, anthrax lethal toxin internalization, FRET ratio (460/530); Potency, µM (highest dose often 40 µM), for the others: at the top dose activity change, negative = inhibition, usual class: inhibitors; hit rate 0.67% among 70,000; AID 912; active = well fitted falling ratio curve with the 530 nm signal flat; inconclusive = other ratio curves, or a change in one channel alone; inactive = flat curves in the ratio and both channels; the % refers to the ratio; further: on the % scale 0 is the no-effect control and ±100 the full control effect; nearly all actives have a fitted effect of over 50% in size; tested in ME-180 cells; beta-lactamase reporter
Active calls of the source: *; & = joins results of further samples; [ ] = remark or other dose. Potency means the concentration at half of the fitted maximal effect.

What do the screens show for `O=C(NCCc1ccc(Cl)cc1)C1CCN(S(=O)(=O)c2ccc(-n3cnnn3)cc2)CC1`?
SmPrx2 inh: >57; Anthrax LT inh: -7%

Results for COCC(C)n1c(C)cc(C(=O)COC(=O)c2nc3nc(C)cc(C)n3n2)c1C (configuration not stated) ?
SmPrx2 inh: >57; Anthrax LT inh: -7%

How did CC(=O)N(CCO)Cc1cc2cc(C)cc(C)c2[nH]c1=O do in these assays?
SmPrx2 inh: >57; Anthrax LT inh: 4%

What do the screens show for `COCCNC(=O)C(OC(=O)CC1Sc2ccccc2NC1=O)c1ccncc1` (configuration not stated)?
SmPrx2 inh: >57; Anthrax LT inh: inconclusive

How did CCn1cc(C(=O)NCCCOC)c2cc(OC)c(OC)cc2c1=O do in these assays?
SmPrx2 inh: >57; Anthrax LT inh: 4%

Results for Cc1ccc(CN2CCN(C(=O)C3CCC3)CC2)cc1 ?
SmPrx2 inh: >57; Anthrax LT inh: 2%

How did COc1ccc(C2=NOC(C(=O)Nc3cc(C)nn3-c3ccccc3)C2)cc1OC (configuration not stated) do in these assays?
SmPrx2 inh: >57; Anthrax LT inh: -2%

What do the screens show for `O=C(O)CCNc1ccc2c(c1)OCCO2`?
SmPrx2 inh: >57; Anthrax LT inh: 0%

How did COCCNc1nc(C)nc2c1nc(-c1ccccc1)n2CC1CCN(C)CC1 do in these assays?
Anthrax LT inh: 9%

How did CN1CCc2cc3c(cc2[C@@H]1[C@@H]1OC(=O)c2c1ccc1c2OCO1)OCO3 do in these assays?
SmPrx2 inh: >57&>57; Anthrax LT inh: inconclusive

What do the screens show for `N#Cc1ccc(CSc2nnc(Cc3cccs3)n2Cc2ccco2)cc1`?
SmPrx2 inh: >57; Anthrax LT inh: -17%

How did CCCc1cc(=O)oc2cc(OCC(=O)OC)cc(OCC(=O)OC)c12 do in these assays?
Anthrax LT inh: 14%

Results for COc1ccccc1-c1nnc2sc(-c3ccc(N(C)C)cc3)nn12 ?
SmPrx2 inh: >57; Anthrax LT inh: inconclusive

Results for CCOC(=O)C1CSC(Cc2ccc(OCc3ccc([N+](=O)[O-])cc3)cc2)N1 (configuration not stated) ?
Anthrax LT inh: -22%

What do the screens show for `C/C=C/c1ccc(OCCCCN2C(=O)NC(C)(C)C2=O)c(OC)c1`?
SmPrx2 inh: >57; Anthrax LT inh: -10%

How did CCOc1ccccc1Nc1nc(N)nc(CSc2nncn2C)n1 do in these assays?
SmPrx2 inh: >57; Anthrax LT inh: 3%

How did CC1CC(C)CN(S(=O)(=O)c2ccc(C(=O)Nc3nnc(-c4cccs4)o3)cc2)C1 (configuration not stated) do in these assays?
SmPrx2 inh: >57; Anthrax LT inh: 17%

Results for Cc1onc(-c2ccncc2)c1C(=O)O ?
SmPrx2 inh: >57; Anthrax LT inh: 14%

Results for CCC/C=N/O ?
Anthrax LT inh: 6%

Results for c1ccc(OCCCCn2cnc3ccccc32)cc1 ?
SmPrx2 inh: >57; Anthrax LT inh: inconclusive

How did CN1CCN(C(=O)C2CCN(S(=O)(=O)c3ccc4c(c3)oc(=O)n4C)CC2)CC1 do in these assays?
SmPrx2 inh: >57; Anthrax LT inh: 2%

How did CC1CCCCC1NC(=O)C1CCN(S(=O)(=O)N2CCCCCC2)CC1 (configuration not stated) do in these assays?
SmPrx2 inh: >57; Anthrax LT inh: inconclusive

Results for Cc1cccc(OCc2nnc(SCC(=O)NCCc3ccccc3)o2)c1 ?
SmPrx2 inh: >57; Anthrax LT inh: -5%

How did c1ccc(CCCNc2ncnc3nc[nH]c23)cc1 do in these assays?
SmPrx2 inh: >57; Anthrax LT inh: 10%

Entries from the list above that contain a thiophene ring, fused or not (2):
What do the screens show for `N#Cc1ccc(CSc2nnc(Cc3cccs3)n2Cc2ccco2)cc1`?
SmPrx2 inh: >57; Anthrax LT inh: -17%

How did CC1CC(C)CN(S(=O)(=O)c2ccc(C(=O)Nc3nnc(-c4cccs4)o3)cc2)C1 (configuration not stated) do in these assays?
SmPrx2 inh: >57; Anthrax LT inh: 17%

Remaining list, next part.
Results for O=C(CCn1c(=O)[nH]c2ccsc2c1=O)N1CCN(c2cccc(Cl)c2)CC1 ?
SmPrx2 inh: >57; Anthrax LT inh: 3%

Results for O=C(Nc1ncc(Br)s1)C1CCCN1S(=O)(=O)c1cccc2cccnc12 (configuration not stated) ?
SmPrx2 inh: >57; Anthrax LT inh: -8%

What do the screens show for `Oc1ccccc1CNCc1ccccc1O`?
SmPrx2 inh: >57; Anthrax LT inh: -9%[8 µM]

Results for COc1cccc(-c2csc(N3CCN(C(=O)C4CCCCC4)CC3)n2)c1 ?
SmPrx2 inh: >57; Anthrax LT inh: 10µM*

How did O=C(COC(=O)c1ccccn1)NCCCc1ccccc1 do in these assays?
SmPrx2 inh: >57; Anthrax LT inh: 4%

How did CCOP(=O)(CC(C(C)=O)C(O)c1ccccc1)OCC (configuration not stated) do in these assays?
Anthrax LT inh: -3%[8 µM]

Results for CCOCCCNC(=O)C(c1ccc(C)cc1)N1CCOCC1 (configuration not stated) ?
SmPrx2 inh: >57; Anthrax LT inh: 4%

How did COc1ccc(C)cc1S(=O)(=O)N1CCN(S(=O)(=O)c2cc(C)ccc2OC)CC1 do in these assays?
Anthrax LT inh: 21%

What do the screens show for `CCC1CCCCN1C(=O)CSc1nnc(-c2ccc3c(c2)OCCO3)o1` (configuration not stated)?
SmPrx2 inh: >57; Anthrax LT inh: 12%

How did CO[C@@H]1/C=C\CC(=O)N[C@@H](C)C(=O)OC[C@H](NS(=O)(=O)c2ccc(C)cc2)[C@H](C)/C=C\CC(=O)OC[C@H]1C do in these assays?
Anthrax LT inh: 0%[8 µM]

Results for COc1ccc(-c2nc3cnc(N4CCN(C)CC4)nc3n(Cc3cccs3)c2=O)cc1 ?
SmPrx2 inh: >57; Anthrax LT inh: inconclusive

Results for CCOC(=O)c1c(N)sc(C(=O)N2CCCC2)c1C ?
SmPrx2 inh: >57; Anthrax LT inh: 1%

What do the screens show for `CSc1nnc(NC(=O)c2ccc(C)c(S(=O)(=O)N3CCOCC3)c2)s1`?
SmPrx2 inh: >57; Anthrax LT inh: 6%

How did Cc1[nH]c(=O)[nH]c(=O)c1S(=O)(=O)NCCc1ccc(S(N)(=O)=O)cc1 do in these assays?
SmPrx2 inh: >57; Anthrax LT inh: inconclusive

What do the screens show for `CCOc1ccc2[nH]c(=O)c(CN(Cc3cccs3)Cc3nnnn3C(C)(C)CC)cc2c1`?
SmPrx2 inh: >57; Anthrax LT inh: 7%

How did CC1(C)CC(O)C(C)(C)N1O (configuration not stated) do in these assays?
SmPrx2 inh: >57; Anthrax LT inh: -4%

Results for CCOC(=O)c1ccc(NC(=O)CC2C(=O)N(c3ccc(F)cc3)C(=O)N2CCCOC)cc1 (configuration not stated) ?
SmPrx2 inh: >57; Anthrax LT inh: 7%

How did COc1ccc(CN2CC(C(=O)NCc3ccccn3)CC2=O)cc1 (configuration not stated) do in these assays?
SmPrx2 inh: >57; Anthrax LT inh: 9%

Results for CCN(Cc1cc2ccc(C)cc2[nH]c1=O)C(=O)c1cccnc1 ?
SmPrx2 inh: >57; Anthrax LT inh: 3%

How did CCc1cc2cc3c(cc2nc1SCC(=O)Nc1cc(C)on1)OCO3 do in these assays?
SmPrx2 inh: >57; Anthrax LT inh: 10%

Results for CCC(=NCCO)c1c(O)n(C2CCCCC2)c(=O)[nH]c1=O ?
SmPrx2 inh: >57; Anthrax LT inh: 14%

How did CCOC(=O)c1c(NC(C)=O)sc2c(O)cccc12 do in these assays?
SmPrx2 inh: >57; Anthrax LT inh: -6%

What do the screens show for `COc1ccc(N2C(=O)CSC2c2ccc3c(c2)OCO3)c(OC)c1` (configuration not stated)?
SmPrx2 inh: >57; Anthrax LT inh: -6%

What do the screens show for `c1ccc(Cn2nnnc2C(c2ccccc2)N2CCN(c3nc4ccccc4s3)CC2)cc1` (configuration not stated)?
SmPrx2 inh: >57; Anthrax LT inh: -9%

Results for COc1ccc(N2CCN(Cc3cc(=O)oc4c3ccc3ccccc34)CC2)cc1 ?
SmPrx2 inh: >57; Anthrax LT inh: -9%

How did O=C(Oc1cccc2c(=O)[nH]ccc12)c1ccccc1 do in these assays?
SmPrx2 inh: >57; Anthrax LT inh: 6%

Results for O=C(Cc1ccccc1)N1CCC(c2nc3ccccc3[nH]2)CC1 ?
SmPrx2 inh: >57; Anthrax LT inh: 14%

What do the screens show for `CCC(C)(C(=O)NC1CCCCC1)N(Cc1ccco1)C(=O)CNC(=O)c1ccccc1` (configuration not stated)?
SmPrx2 inh: >57; Anthrax LT inh: -3%

Results for COc1ccccc1CN1C(=O)[C@@H]2C(CCC(N)=O)NC3(C(=O)Nc4c3ccc(Cl)c4C)[C@@H]2C1=O (some centres not stated) ?
SmPrx2 inh: >57; Anthrax LT inh: -17%

How did NS(=O)(=O)c1ccc(N=Nc2nc3[nH]c(=O)[nH]c(=O)c3[nH]2)cc1 do in these assays?
SmPrx2 inh: >57; Anthrax LT inh: inconclusive

Results for COC(=O)c1nc2nc(C)cc(C(F)(F)F)n2n1 ?
SmPrx2 inh: >57; Anthrax LT inh: -17%

Results for CCOc1ccc2nc(N3CCC(C(=O)N4CCN(C5CCCCC5)CC4)CC3)sc2c1 ?
SmPrx2 inh: >57; Anthrax LT inh: -1%

Results for Cc1csc(NC(=O)c2sc3nc(-c4cccs4)ccc3c2N)n1 ?
SmPrx2 inh: >57; Anthrax LT inh: inconclusive

Results for Cc1cc(C)c(S(=O)(=O)Nc2ccc(O)cc2)c(C)c1 ?
Anthrax LT inh: -14%

What do the screens show for `CCOc1ccc(N(CC(=O)NCC(C)C)S(C)(=O)=O)cc1`?
Anthrax LT inh: -6%

What do the screens show for `O=C(CN(Cc1ccc(F)cc1)C(=O)c1ccco1)NCc1ccc(F)cc1`?
SmPrx2 inh: >57; Anthrax LT inh: 1%

How did O=C(Nc1cccnc1)C1OCCc2ccccc21 (configuration not stated) do in these assays?
SmPrx2 inh: >57; Anthrax LT inh: -8%

What do the screens show for `CCCCSc1nc2c(cnn2-c2ccc(Cl)cc2)c(=O)[nH]1`?
SmPrx2 inh: >57; Anthrax LT inh: -13%

How did O=c1cc(CSc2ccc(Cl)cc2)nc2nc[nH]n12 do in these assays?
SmPrx2 inh: >57; Anthrax LT inh: 8%

Results for COc1ccccc1N1CCN(C(=O)c2cn(-c3ccccc3)nc2-c2cccnc2)CC1 ?
Anthrax LT inh: -9%

Results for Cc1ccc(CN2C(=O)CCC2C(=O)NCCN(CC(C)C)CC(C)C)cc1 (configuration not stated) ?
SmPrx2 inh: >57; Anthrax LT inh: -17%

What do the screens show for `COc1ccccc1CNC(=O)C1CC(=O)N(C2CCCC2)C1` (configuration not stated)?
SmPrx2 inh: >57; Anthrax LT inh: -5%

What do the screens show for `Cc1nn(-c2ccccc2)c(C)c1C(=O)OC/C(O)=C(\C#N)c1nc2ccccc2[nH]1`?
SmPrx2 inh: >57; Anthrax LT inh: -1%

Results for Cc1cc2ccccc2c(=O)n1CC(=O)N(C)c1ccc(F)cc1 ?
SmPrx2 inh: >57; Anthrax LT inh: 9%

What do the screens show for `Cn1c(=O)n2n(c1=O)[C@H]1[C@H](O)[C@H]3O[C@@H]3/C(=N/OCc3ccccc3)[C@@H]1CC2`?
Anthrax LT inh: -1%[1.6 µM]

How did COc1cccc(-n2c(SCC(=O)NC(C)(C)C)nnc2-c2ccoc2C)c1 do in these assays?
SmPrx2 inh: >57; Anthrax LT inh: -8%

How did CCCCOc1cc(C)nc(NCc2ccccc2)n1 do in these assays?
SmPrx2 inh: >57; Anthrax LT inh: inconclusive

What do the screens show for `O=C(COc1ccc(=O)n(-c2ccccc2)n1)Nc1ccccc1`?
SmPrx2 inh: >57; Anthrax LT inh: -1%

What do the screens show for `O=C(CCN1C(=O)c2ccccc2S1(=O)=O)NCc1ccco1`?
Anthrax LT inh: -28%

How did Cc1ccc(N(C(=O)CNC(=O)c2ccco2)C(C(=O)NCC2CCCO2)c2ccccc2)cc1 (configuration not stated) do in these assays?
SmPrx2 inh: >57; Anthrax LT inh: -1%

How did O=C(COc1c(F)c(F)cc(F)c1F)NC(=O)NC1CCCC1 do in these assays?
SmPrx2 inh: >57; Anthrax LT inh: -26%

Looked up by compound from the entries so far:
How did CCCCOc1cc(C)nc(NCc2ccccc2)n1 do in these assays?
SmPrx2 inh: >57; Anthrax LT inh: inconclusive

Results for Cc1ccc(CN2C(=O)CCC2C(=O)NCCN(CC(C)C)CC(C)C)cc1 (configuration not stated) ?
SmPrx2 inh: >57; Anthrax LT inh: -17%

Results for COc1ccccc1N1CCN(C(=O)c2cn(-c3ccccc3)nc2-c2cccnc2)CC1 ?
Anthrax LT inh: -9%

How did O=c1cc(CSc2ccc(Cl)cc2)nc2nc[nH]n12 do in these assays?
SmPrx2 inh: >57; Anthrax LT inh: 8%

What do the screens show for `O=C(COc1ccc(=O)n(-c2ccccc2)n1)Nc1ccccc1`?
SmPrx2 inh: >57; Anthrax LT inh: -1%

How did COc1cccc(-n2c(SCC(=O)NC(C)(C)C)nnc2-c2ccoc2C)c1 do in these assays?
SmPrx2 inh: >57; Anthrax LT inh: -8%

These rows are one share of the data; the hit share may differ from the screen's.
